Apaf1 inhib = inhibitors of human Apaf-1 apoptosome | inhibition, % at 20 µM | reconstituted apoptosome caspase-3 activity, DEVD-Rh110 fluorescence | O14727 | 330,000 compounds, 0.71% hits; active = inhibition of at least 40% at 20 µM;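 also: plate controls were DMSO wells for no effect and DEVD-CHO caspase inhibitor wells for full effect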
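Material: reconstituted apoptosome with Apaf-1, cytochrome c, caspase-9, procaspase-3, dATP. Technique: Rh110 fluorescence intensity. Buffer or medium: pH 7.5 Hepes buffer with CHAPS, BSA, DTT. Times: 30 min plus 50 min, RT.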
697 NFkB inh = inhibitors of the PMA/ionomycin-induced NF-kB reporter in 697 B cells; 330,000 compounds, 0.33% hits; 697 B-cell NF-kB luciferase reporter, 16 h; inhibition, % at 4 µM; in the data active = inhibition above about 35%
HKDC1 inh = inhibitors of human hexokinase HKDC1; recombinant HKDC1, G6PDH/diaphorase resazurin coupled fluorescence; inhibition, % at 20 µM; 340,000 compounds, 0.16% hits;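 active = inhibition above about 35% when tested at 20 µM, limit read from the data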;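 also: plate controls were DMSO wells with enzyme for no effect and DMSO wells lacking enzyme for full effect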
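Assay system: recombinant HKDC1 hexokinase; detection: coupled resazurin fluorescence, excitation 525 nm, emission 613 nm; benchmarks: DMSO-plus-enzyme-mix negative control, buffer-substituted positive control; compound dosing: single 20 µM dose; schedule: 90 min at room temperature in dark; also added: glucose plus 1 mM ATP as hexokinase substrates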
UBC13 inh = blocks human UBC13 polyubiquitin chain formation | TR-FRET | inhibition, % at 20 µM | 330,000 compounds, 0.47% hits | AID 485273; in the data active = inhibition above about 45%, passing the limit was not always enough
Target sequence (P61088 whole entry, looked up): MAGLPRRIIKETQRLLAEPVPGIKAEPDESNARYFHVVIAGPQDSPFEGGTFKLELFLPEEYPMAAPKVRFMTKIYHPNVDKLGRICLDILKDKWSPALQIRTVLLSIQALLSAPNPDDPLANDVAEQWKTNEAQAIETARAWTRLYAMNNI
Jurkat NFkB inh = lowers PMA/ionomycin-induced NF-kB signal in Jurkat cells; PMA/ionomycin-induced NF-kB luciferase reporter, luminescence; inhibition, % at 4 µM; 330,000 compounds, 0.53% hits; in the data active = inhibition above about 50%
Gli-Sufu block = Gli-Sufu pathway antagonism; Sufu-KO-LIGHT fibroblasts, Gli luciferase reporter luminescence; inhibition, % at 5 µM; 340,000 compounds, 0.74% hits;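 active = inhibition above about 55%, limit read from the data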;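 also: 0% = DMSO-treated cells and 100% = wells with medium but no cells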
Active calls of the source: *; . = no result given. The list is partial, so the mix of outcomes need not match the whole.

Compound	Apaf1 inhib	697 NFkB inh	HKDC1 inh	UBC13 inh	Jurkat NFkB inh	Gli-Sufu block
Nn1cnnc1SCC(=O)N(C1CCCCC1)C1CCCCC1	8	10	-6	3	-2	-1
COc1ccc(Nc2cc(NCCCO)c([N+](=O)[O-])c3nonc23)cc1	13	19	11	-83	2	2
Cc1cc(C)c2c(CC(=O)N3CCCC3)coc2c1	1	-28	-1	-5	-16	-5
O=C(NNS(=O)(=O)c1ccccc1F)c1ccccc1-n1cccc1	12	5	1	0	-6	-11
COc1ccc(-c2cc(C(=O)OCC(=O)N3CCCCC3)c3ccccc3n2)cc1OC	13	-18	1	13	5	-12
COC(=O)c1sccc1NC(=O)/C=C/c1c(Cl)cccc1Cl	6	-26	4	-1	-21	3
C/C(=N\NC(=O)C(C)Sc1ccccc1)c1ccc([N+](=O)[O-])cc1 (stereo not drawn)	7	0	10	-5	7	31
Cc1ccnc(NC(=O)CCC2CCCCC2)c1	2	16	3	10	-81	-33
COC(=O)c1ccc(C2NC(=S)N(c3ccccc3)C(C)=C2C(=O)Nc2ccccc2OC)cc1 (stereo not drawn)	9	-7	-8	-6	-8	3
COc1ccc(-c2ccc(NS(=O)(=O)c3cc([N+](=O)[O-])c(C)c([N+](=O)[O-])c3)cc2)nn1	6	-6	-1	-6	-4	6
Cc1cccc(C)c1NC(=O)CCCSc1nnc(-c2ccco2)n1-c1ccccc1	9	3	-1	-1	9	-1
CCOc1cccc(/C=C/c2ccc3cccc(O)c3n2)c1O	14	-148	6	-27	-81	5
COC(=O)c1ccc(NC(=O)c2ccc(OC(C)=O)c(OC)c2)cc1	-2	-66	-5	-13	-46	-3
O=C(CCc1ccccc1)N/N=C\c1cc2c(cc1Br)OCO2	22	-4	5	4	2	10
O=C(NCc1ccccn1)c1cccc(NS(=O)(=O)c2cccc(Cl)c2)c1	-2	-17	12	1	6	5
CC(=O)c1ccccc1NC(=O)COC(=O)c1c(C)nn(-c2ccccc2)c1C	11	0	5	15	9	-8
CN1C(=O)/C(=C/c2ccc(O)c([N+](=O)[O-])c2)NC1=S	5	9	2	-160	3	14
Cc1cccc(NC(=O)c2cc(-c3cc(C)ccc3O)n[nH]2)c1	-2	-120	-7	6	-82	-47
COc1ccc(/C=N/NC(=O)c2cccc(C(=O)N/N=C/c3ccc(OC)cc3)n2)cc1	-5	-35	-3	20	-2	-24
CCCOc1ccc(-c2cc3onc(-c4ccccc4)c3c(=O)n2C)cc1	27	-278	8	6	10	-38
Cc1nn2c(-c3ccccc3)ccnc2c1-c1ccccc1	17	-100	5	-1	-67	-61
CCN(CC)CCOCCOc1ccc(Cl)c2ccccc12	8	-7	-8	-3	-10	16
CCn1nc(C(=O)NNS(=O)(=O)c2cc(/C=C/C(=O)O)cc(OC)c2OC)c2ccccc2c1=O	-1	22	-3	-7	1	2
CCC(C)NCCCOc1ccc(Cl)cc1C(C)(C)C (stereo not drawn)	-6	-5	-4	-2	-2	0
COc1ccc(NC(=S)NC(NC(=O)c2ccc(Cl)cc2Cl)C(Cl)(Cl)Cl)c([N+](=O)[O-])c1 (stereo not drawn)	12	25	-1	-7	-18	-3
O=C(NCC1CC1)C1(S(=O)(=O)c2ccccc2)CC=CC1	-9	-4	-7	-3	8	-4
O=[N+]([O-])c1ccccc1N/N=C\c1ccccc1F	-6	-143	-1	-54	-116	-40
O=C(OCc1ccc(F)cc1Cl)c1ccccn1	-27	9	-5	-3	5	1
Cc1[nH]n2c(=O)c3c(nc2c1-c1ccc(F)cc1)CCCC3	11	18	-7	8	14	-2
c1ccc(C2C3=C(Nc4ncnn42)c2ccccc2CCC3)cc1 (stereo not drawn)	16	-5	-6	-16	-10	6

18 neighbouring records already listed, for reference:
Compound	Apaf1 inhib	697 NFkB inh	HKDC1 inh	UBC13 inh	Jurkat NFkB inh	Gli-Sufu block
COc1ccc(-c2ccc(NS(=O)(=O)c3cc([N+](=O)[O-])c(C)c([N+](=O)[O-])c3)cc2)nn1	6	-6	-1	-6	-4	6
Cc1cccc(C)c1NC(=O)CCCSc1nnc(-c2ccco2)n1-c1ccccc1	9	3	-1	-1	9	-1
CCOc1cccc(/C=C/c2ccc3cccc(O)c3n2)c1O	14	-148	6	-27	-81	5
COC(=O)c1ccc(NC(=O)c2ccc(OC(C)=O)c(OC)c2)cc1	-2	-66	-5	-13	-46	-3
O=C(CCc1ccccc1)N/N=C\c1cc2c(cc1Br)OCO2	22	-4	5	4	2	10
O=C(NCc1ccccn1)c1cccc(NS(=O)(=O)c2cccc(Cl)c2)c1	-2	-17	12	1	6	5
CC(=O)c1ccccc1NC(=O)COC(=O)c1c(C)nn(-c2ccccc2)c1C	11	0	5	15	9	-8
CN1C(=O)/C(=C/c2ccc(O)c([N+](=O)[O-])c2)NC1=S	5	9	2	-160	3	14
Cc1cccc(NC(=O)c2cc(-c3cc(C)ccc3O)n[nH]2)c1	-2	-120	-7	6	-82	-47
COc1ccc(/C=N/NC(=O)c2cccc(C(=O)N/N=C/c3ccc(OC)cc3)n2)cc1	-5	-35	-3	20	-2	-24
CCCOc1ccc(-c2cc3onc(-c4ccccc4)c3c(=O)n2C)cc1	27	-278	8	6	10	-38
Cc1nn2c(-c3ccccc3)ccnc2c1-c1ccccc1	17	-100	5	-1	-67	-61
CCN(CC)CCOCCOc1ccc(Cl)c2ccccc12	8	-7	-8	-3	-10	16
CCn1nc(C(=O)NNS(=O)(=O)c2cc(/C=C/C(=O)O)cc(OC)c2OC)c2ccccc2c1=O	-1	22	-3	-7	1	2
CCC(C)NCCCOc1ccc(Cl)cc1C(C)(C)C (stereo not drawn)	-6	-5	-4	-2	-2	0
COc1ccc(NC(=S)NC(NC(=O)c2ccc(Cl)cc2Cl)C(Cl)(Cl)Cl)c([N+](=O)[O-])c1 (stereo not drawn)	12	25	-1	-7	-18	-3
O=C(NCC1CC1)C1(S(=O)(=O)c2ccccc2)CC=CC1	-9	-4	-7	-3	8	-4
O=[N+]([O-])c1ccccc1N/N=C\c1ccccc1F	-6	-143	-1	-54	-116	-40

Other structures follow.
Compound	Apaf1 inhib	697 NFkB inh	HKDC1 inh	UBC13 inh	Jurkat NFkB inh	Gli-Sufu block
C/C(=N\NC(=O)CSCc1cccc(Br)c1)c1ccc([N+](=O)[O-])cc1	10	0	0	2	-9	-3
COc1cccc(COC(=O)Nc2ccccc2F)c1	6	-116	1	7	-118	-69
O=C(CSc1n[nH]c(-c2cccs2)n1)N1CCCC1	-5	11	0	-2	-7	-10
COc1cc(OC)cc(-c2cc3cc4c(cc3cn2)OCO4)c1	13	-177	12	17	-18	-7
COC(=O)c1cccc(CN2C(=O)SC(Nc3ccc(C)cc3)C2=O)c1 (stereo not drawn)	0	20	-1	5	13	-5
O=C(NCc1ccccn1)c1cccc(S(=O)(=O)Nc2ccc(F)cc2)c1	8	-5	0	-4	0	7
COc1ccc(CCNC(=O)c2nnc(CS(=O)(=O)c3ccccc3)o2)cc1OC	-6	1	-4	6	3	1
CC1=CCC(C(=O)O)C(C(=O)Nc2ccc(-c3nc4ccc(C)cc4s3)cc2)C1 (stereo not drawn)	12	-97	2	-4	-103	-92
Nc1c(Cl)cc(C2=NCCn3c2c2ccc(C(F)(F)F)cc2[n+]3[O-])cc1Cl	9	-19	17	13	15	14
O=C(O)c1cccc(-n2cccc2/C=C2/NC(=O)N(c3cccc(Cl)c3)C2=O)c1	-4	-12	2	-15	-6	-1
Cc1ccc(-c2c(NCCc3ccccc3)c(=O)c2=O)cc1	-6	-26	4	-5	11	40
CCn1c(CNC(=O)COc2ccc(C(C)C)cc2)nnc1SCC(=O)Nc1ccccc1	8	12	-3	6	18	-3
Cc1nn(C)c(C)c1S(=O)(=O)N1CCC(CO)(CC2CCCCO2)CC1 (stereo not drawn)	-15	5	3	-4	-2	-2
O=C(Cn1cnc(S(=O)(=O)N2CCCC2)c1)Nc1ccccc1	4	-20	-7	-6	2	-5
NC(=O)C(c1ccc(Cl)cc1)c1ccc(Sc2ccccc2)nn1 (stereo not drawn)	1	11	-7	15	-3	-3
O=C(Nc1ccccc1)N1CCc2ccccc21	8	-146	-2	4	-101	-92
COc1cc(OC)cc(C(=O)Nc2ccc(NC(=O)c3ccco3)c(Cl)c2)c1	-17	3	-6	3	-9	-38
CCOC(=O)C1CCCN(C(=O)c2ccc(S(=O)(=O)NCc3ccco3)cc2)C1 (stereo not drawn)	6	-7	-3	2	5	4
COc1ccc(Br)cc1/C=N/n1c(C)nnc1C	17	24	-9	0	-5	1
COC(=O)[C@H](C(C)C)N(Cc1ccccc1)S(=O)(=O)CCNC1CCCC1	10	-26	4	.	.	8
c1ccc(CSc2ncnc3c2cnn3-c2ccccc2)cc1	3	-63	-11	17	-56	-9
CCOC(=O)C1CCN(C(=O)CCc2ccc(S(=O)(=O)NCC(C)C)cc2)CC1	-3	-16	-7	-3	-3	5
COc1ccc(C)cc1NC(=O)C(=O)NCc1ccncc1	-7	5	9	-1	-4	2
COc1ccc(/C=N/NC(=O)c2ccccc2OC)cc1COc1ccccc1[N+](=O)[O-]	13	-25	2	-9	24	8
Cc1cc(C(=O)COC(=O)c2cccc(O)c2)c(C)n1C1CC1	-2	-35	-4	6	-134	99*
Clc1ccc(C2C3=C(Nc4ncnn42)c2ccccc2CC3)cc1 (stereo not drawn)	9	-28	.	-2	0	.
COc1ccccc1NC(=O)C1=C(C)Nc2nnnn2C1c1cccc(Br)c1 (stereo not drawn)	-4	-22	0	2	-4	13
COC(=O)c1sccc1NC(=O)Nc1cccc(C)c1	-9	-16	-3	14	4	-12
COc1ccc2c3n([n+]([O-])c2c1)CCN=C3c1ccc(Cl)cc1	16	-20	6	0	-8	-10
COC(=O)c1ccccc1C(=O)c1ccc2c(c1)NC(=O)CO2	-2	9	1	18	-4	3
O=C(CNc1ccccc1OC(F)F)N1CCc2ccccc21	20	-70	-7	8	-95	-56
COc1cc(OC)c(OC)cc1/C=N/n1c(C)nnc1C	-5	33	-4	2	-15	4
CCn1c(/C=N/NC(=O)c2ccc(OC)cc2)nc2ccccc21	14	-34	21	-13	-14	4
O=C(/C=C/c1cccs1)Nc1ccc(Br)cn1	-15	-77	-9	1	-37	-66
CC(C)CC(C(=O)N1CCOCC1)N1Cc2ccccc2C1=O (stereo not drawn)	-3	7	-8	4	9	-8
COc1ccc(CNc2nc(NCc3ccc(OC)cc3)n(C(=O)c3ccccc3[N+](=O)[O-])n2)cc1	-10	-10	-1	-12	6	-14
CCc1nc2n[nH]c(N)c2c2c1CCCC2	-3	-11	1	8	6	3
